# Screening data as filed in PubChem.
# Rango complex inh = Rango-importin beta binding inhibition; AID 540263; Potency, µM (titrated, usually from 92.2 µM), inactives show top-dose inhibition of complex formation; 0.031% of 340,000 active; Rango CFP/YFP FRET sensor + importin beta, 45 min; active = rising FRET ratio curve, often small or poorly fitted; inconclusive = mostly compound fluorescence or quenching in the first reads; inactive = flat curves in all reads;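 note: potency is the fitted concentration of half-maximal effect; 0% = DMSO wells and 100% = buffer wells lacking importin beta; nearly all actives have a fitted effect of over 15% in size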
# Target sequence (Q14974 whole entry, looked up): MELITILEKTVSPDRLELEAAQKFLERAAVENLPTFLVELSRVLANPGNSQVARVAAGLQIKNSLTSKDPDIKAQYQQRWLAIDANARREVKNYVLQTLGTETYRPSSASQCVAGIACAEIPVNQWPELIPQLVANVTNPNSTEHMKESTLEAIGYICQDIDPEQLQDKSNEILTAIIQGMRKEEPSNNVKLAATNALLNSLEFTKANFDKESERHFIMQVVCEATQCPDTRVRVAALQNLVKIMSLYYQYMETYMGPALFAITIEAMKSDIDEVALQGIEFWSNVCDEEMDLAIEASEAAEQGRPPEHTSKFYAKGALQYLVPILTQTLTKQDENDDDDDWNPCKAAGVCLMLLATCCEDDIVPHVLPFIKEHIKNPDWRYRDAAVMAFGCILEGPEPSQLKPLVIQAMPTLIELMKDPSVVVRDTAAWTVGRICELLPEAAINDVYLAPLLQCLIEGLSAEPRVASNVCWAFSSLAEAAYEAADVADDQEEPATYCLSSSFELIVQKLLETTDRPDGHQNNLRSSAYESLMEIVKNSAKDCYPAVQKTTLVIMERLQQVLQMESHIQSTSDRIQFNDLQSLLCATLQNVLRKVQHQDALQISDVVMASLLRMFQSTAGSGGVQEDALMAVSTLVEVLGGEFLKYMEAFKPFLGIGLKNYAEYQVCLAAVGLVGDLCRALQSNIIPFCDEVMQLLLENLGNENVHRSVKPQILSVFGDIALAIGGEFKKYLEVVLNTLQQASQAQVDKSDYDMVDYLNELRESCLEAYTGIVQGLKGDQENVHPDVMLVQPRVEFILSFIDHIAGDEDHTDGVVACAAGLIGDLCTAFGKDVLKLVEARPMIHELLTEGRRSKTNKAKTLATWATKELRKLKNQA
#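 FRET biosensor (snurportin 1 IBB flanked by EYFP and cerulean), 50 nM, with compound 5 min, then 0.125 microM importin beta in PBS, 1 mM DTT, 0.02% Tween-20, 0.1% BSA. CFP/YFP ratio read after 45 min at room temperature; pre-read flags interference.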
# Rango release inh = inhibition of RanGTP-driven Rango-importin beta dissociation; O95149+P62826; Biochemical FRET Rango-importin beta, RanGTP-induced dissociation; Potency, µM (top dose mostly 46.1 µM), without a hit: at the top dose activity change, negative = inhibition; 0.071% of 340,000 active; AID 540253; active means falling FRET ratio curve, often poorly fitted, with flat reads before Ran was added; inconclusive means other falling curves, or compound fluorescence or quenching; inactive means flat or rising ratio curve;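 note: potency is the fitted concentration of half-maximal effect; % of control where 0% means no effect; nearly all actives have a fitted effect of over 45% in size; -100% = wells without RanGTP and RCC1; the record marks most hits as doubtful in a second field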
#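 Recombinant Rango FRET biosensor (EYFP–snurportin 1 IBB–cerulean CFP10) at 0.1 uM premixed with 0.25 uM importin beta in PBS, 1 mM DTT, 0.02% Tween-20, 0.1% BSA. Compound added 5 min; RanGTP-RCC1 (0.6 uM Ran, 2 mM GTP, 0.2 uM RCC1) then triggers release, read at 45 min.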
# GLA inh pH 4.5 = blocks human alpha-galactosidase A at pH 4.5. P06280. purified enzyme, 4-MU-alpha-Gal fluorescence, pH 4.5. activity change, negative = inhibition, % at 105 µM. 230,000 tested, under 10 active. AID 1467; inconclusive = small, poorly fitted or top-dose-only inhibition, or a rising curve; inactive = flat fitted curve, though single readings scatter; no compound was filed as active;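 note: 0% = full activity with enzyme and -100% = basal without enzyme; dose as in the result columns while the protocol names 77 µM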
# miR-21 FLuc = miR-21 reporter, rising signal; HeLa miR-21 FLuc reporter, luciferase, 48 h; Potency, µM (highest dose often 38.3 µM), without a hit: at the highest dose reporter change, positive = more light; 340,000 tested, under 10 active; AID 2288; active = well fitted rising curve with a large enough effect; inconclusive = small, poorly fitted or top-dose-only effect; inactive = no such curve, though single readings can be large or run the other way;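 note: % of control where 0% means no effect; miR-21 action dims this reporter so a rising signal means less miR-21 action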
#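 HeLa cells endogenously expressing miR-21, stably carrying CMV-driven firefly luciferase with a downstream miR-21 binding site, 2000 cells/well. Titrations up to approximately 40 uM, 48 hours; luciferase luminescence read.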
# An asterisk follows results filed as active; ? = inconclusive; . = not tested or not shown; & = joins results of further samples.
SMILES,Rango complex inh,Rango release inh,GLA inh pH 4.5,miR-21 FLuc
COC(=O)C1=C(c2ccc(-c3ccccc3)c(F)c2)C[C@@H]2CC[C@H]1N2C(=O)NCCNC(C)=O,1.4%,0.3%,.,.
CCCCn1c(NS(=O)(=O)c2ccccc2)c(C(=O)OCC)c2nc3ccccc3nc21,?,?,3.2,?
C=CCn1c(O)c(C(C)=NCc2ccco2)c(=O)[nH]c1=O,-1.1%,2.9%,4.4,2.8%
CCN(CC)P(c1n(C)cc[n+]1C)N(CC)CC,3.0%,0.9%,7.0,6.0%
O=C(Cc1cc(=O)oc2cc(O)ccc12)NN=Cc1ccc(N(CCCl)CCCl)cc1,?,?,.,.
CC(C)OC(=O)c1cc(C(=O)c2cc(Cl)ccc2O)coc1=N,?,-18.5%,-3.4,0.6%
Cc1ccc(NP(=O)(Oc2ccccc2F)Oc2ccccc2F)cc1C,1.0%,4.2%,-11.1,16.0%
COc1ccc(C(=O)C2(C)N(O)C(C)C(c3cccs3)=[N+]2[O-])cc1 (stereo not given),-3.5%,?,-11.2,-4.3%
COc1ccccc1CC(=O)N1CCN(CCc2ccccc2)CC1,1.5%,11.3%,.,-5.1%
O=c1c2ccccc2ncn1-c1ccc([N+](=O)[O-])c(C(F)(F)F)c1,1.8%,-2.7%,-5.1,-7.4%
CC(C)[C@@]1(NC(=O)[C@@H]2C=C3c4cccc5[nH]cc(c45)C[C@H]3N(C)C2)O[C@@]2(O)[C@@H]3CCCN3C(=O)[C@H](Cc3ccccc3)N2C1=O,.,.,-13.1,-16.5%
C[C@]12CCC3C(CC[C@H]4[C@H](O)[C@H](O)CC[C@]34C)C1CC[C@@H]2O (stereo not given in full),6.0%,5.0%,.,.
O=c1[nH]c(=O)n(CCc2ccccc2)c(O)c1C=NCCN1CCNCC1,-0.7%,-1.5%,-10.8,-5.7%
N#CC1=C(N)Oc2c(c(=O)oc3ccccc23)C1c1cccnc1 (stereo not given),-0.6%,0.2%,4.5,5.6%
CCCNC(=O)N1[C@H]2CC[C@@H]1C(C(=O)OC)=C(c1ccc(C(C)=O)cc1)C2,-1.4%,-11.0%,.,.
Cc1cc(C)nc(-n2c(C)nc3cc(Cl)ccc3c2=O)c1,-3.0%,4.7%,0.1,-30.9%
C=CCn1c(O)c(C(CC)=Nc2ccc(N(CC)CC)cc2)c(=O)[nH]c1=O,-1.4%,1.4%,-2.5,3.5%
C=CCn1c(O)c(C=NC2CCN(Cc3ccccc3)CC2)c(=O)[nH]c1=O,-1.2%,0.6%,5.4,0.1%
CCOc1ccc(N2C(=O)NC(=O)/C(=C/c3cnc(SC)nc3)C2=O)cc1,-0.4%,16.1%,3.5,1.6%
O=C1NC(=O)N(c2ccccc2)C(=O)/C1=C\c1ccc2c3c(cccc13)CC2,.,.,-2.1,2.6%
C=C(C)C1(CCCC)C(=O)NC(=S)NC1=O,1.8%,2.3%,.,.
COC(=O)C1=C(c2ccc(F)cc2OCc2ccccc2)C[C@@H]2CC[C@H]1N2C(=O)N1CCC(O)(c2ccc(Cl)cc2)CC1,-0.5%,10.9%,.,.
CC(C(=O)Nc1ccc(Br)cc1C(=O)c1ccccc1)N1CCCCC1 (stereo not given),-0.3%,13.7%,-6.9,-3.1%
CN1CC[C@@]2(C)c3cc(O)ccc3N(C)[C@@H]12,?,26.3%&0.6%,-0.1,.
Oc1ccccc1-[n+]1c(-c2ccccc2)cc(-c2ccccc2)c(O)c1-c1ccccc1,?,?,.,.
Cc1ccc(/C=C2/C(=O)NC(=O)N(CC3CCCO3)C2=O)s1 (stereo not given),-4.8%,-21.2%,2.1,-22.4%
O=C(N/N=C1/CN2CCC1CC2)c1cc2ccccc2cc1O,-1.0%,-16.5%,5.5,-11.4%
C=C[C@@H]1C2=CCOC(=O)C2=CO[C@H]1O[C@@H]1O[C@H](CO)[C@@H](O)[C@H](O)[C@H]1O,-0.3%,-14.1%,.,.
O=C(Cc1ccccc1)Oc1ccc(N2C(=O)C3CCCCC3C2=O)cc1 (stereo not given),-1.4%,0.3%,-1.0,0.3%
COC(=O)c1cc(COc2cc(C)cc3oc(=O)c4c(c23)CCC4)c(C)o1,.,.,?,-0.7%
Cc1ccccc1N1CCN(C2CCCN(C(=O)Cc3c(C)noc3C)C2)CC1 (stereo not given),0.6%,6.8%,.,1.9%
O=c1[nH]c(=O)n(CCC2=CCCCC2)c(O)c1/C=N/Nc1cccc2ccccc12,?,-29.7%,-5.4,23.1%
CCOC(=O)C1SC2(C(F)(F)C(F)F)CC1(O)c1c(c(OC)c3occc3c1OC)O2 (stereo not given),-4.7%,19.3%,0.7,-8.0%
CCOC(=O)c1c(/N=C/C2C(=O)NC(=O)NC2=O)sc2c1CCC2,?,?,-4.5,0.5%
Cn1c(O)c(/C=N/N2CCCCC2)c(=O)[nH]c1=O,1.7%,?,3.9,-1.5%
O=C1NS(=O)c2cc([N+](=O)[O-])cc([N+](=O)[O-])c21 (stereo not given),0.9%,5.9%,1.2,-1.3%
Cc1cc(C)c(S(=O)(=O)NCC2CCC(C(=O)N3CCC4(CC3)OCCO4)CC2)c(C)c1 (stereo not given),0.5%,-1.2%,7.0,-3.0%
Cc1cccc(-n2c(-c3ccc([N+](=O)[O-])cc3)nc3ccccc3c2=O)c1,2.4%,-8.6%,5.4,-3.9%
CNP1(NC)=Nc2nn(-c3ccccc3)c(N)c2C(c2ccccc2)=N1,3.7%,16.1%,-1.8,-12.4%
CCNC(=S)N1CCn2cccc2C1c1cccnc1 (stereo not given),-0.6%,5.7%,-3.0,0.2%
COc1ccc(OC)c(C2C(C#N)=C(N)Oc3c2c(C)nn3-c2ccc(C)cc2)c1 (stereo not given),?,3.9%,-5.1,2.1%
CCCOC(=O)c1ccc(-[n+]2c(-c3ccccc3)cc(-c3ccccc3)cc2-c2ccccc2)cc1,2.0%,2.2%,.,.
CC(=NCC1CCCO1)c1c(O)n(-c2ccccc2C)c(=O)[nH]c1=O (stereo not given),-2.8%,0.4%,3.2,1.2%
Cc1cc(O)c2c(c1)OC(C)(C)C1=C2CC(C)CC1 (stereo not given),0.7%,-5.7%,.,9.1%
C=CCc1c(C)nc(C)nc1N/N=C/c1ccc(N(C)C)cc1,?,25.0%,-5.5,18.2%
COC(=O)C1=C(c2ccc(F)cc2OCc2ccccc2)C[C@@H]2CC[C@H]1N2C(=O)NCCCOC(C)C,-2.4%,-11.0%,.,.
CC(C)Cn1cc(C(=O)N2CCC3(CC2)OCCO3)c2c3ccccc3n(C)c2c1=O,-3.3%,-14.2%,6.5,5.3%
Nc1cc(Cl)c2nonc2c1[N+](=O)[O-],?,1.8%,-0.6,?
CCCCCn1c(=O)c(C(=O)NC(C)c2ccccc2)c(O)c2ccccc21 (stereo not given),-3.4%,6.8%,.,-0.9%
Cn1c(O)c(C(=N)COc2cccc(Cl)c2)c(=O)n(C)c1=O,1.2%,-6.5%,-2.7,-0.4%
COC(=O)C1=C(c2cccc(OCc3ccccc3)c2)C[C@@H]2CC[C@H]1N2C(=O)NCCOc1ccccc1Cl,-0.2%,?,.,.
CCN(CC)C(=O)Oc1ccc(NC(=O)N2CCOCC2)cc1,2.5%,13.0%,.,9.2%
Cc1cccc(CCNCc2cc3ccc(C)cc3[nH]c2=O)c1,?,?,.,-2.0%
O=C(COc1ccccc1Cl)N1CCCC(N2CCN(c3ccc(F)cc3)CC2)C1 (stereo not given),0.2%,26.6%,.,23.4%
COC(=O)C1=C(c2ccc(F)cc2F)C[C@@H]2CC[C@H]1N2C(=O)NCc1ccco1,?,12.5%,.,.
Cc1c(CC(=O)N2C[C@H]3C[C@@H](C2)c2cccc(=O)n2C3)c(=O)oc2c(C)c(O)ccc12,?,?,.,3.7%
COC(=O)C1=C(c2cccc(OC)c2OC)C[C@@H]2CC[C@H]1N2C(=O)NC(C)C,1.0%,6.8%,.,.
Cc1ccc(-n2c(O)c(C=Nc3ccc(S(N)(=O)=O)cc3)c(=O)[nH]c2=O)cc1,2.0%,16.6%,-0.3,-0.5%
CN(C)C(Cc1ccccc1)C(=O)c1ccc(-c2ccccc2)cc1 (stereo not given),?,-21.0%,-6.8,-5.0%
CN(C)C1(CNC(=O)c2ccc(NS(=O)(=O)c3ccc(Cl)c(Cl)c3)cc2)CCCCC1,3.3%,-1.3%,.,.

# Going on with the list.
SMILES,Rango complex inh,Rango release inh,GLA inh pH 4.5,miR-21 FLuc
C=CCn1c(O)c(C(CC)=Nc2cccc(C(=O)O)c2)c(=O)[nH]c1=O,0.8%,18.9%,-0.9,-5.0%
CCOC(=O)c1ccc(N=C(C)c2c(O)[nH]c(=O)[nH]c2=O)cc1,-2.7%,-6.0%,0.9,-1.0%
COC1C(O)C(C)OC(OC2CCC3(C)C(CCC4C3C(O)CC3(C)C(C5=CC(=O)OC5)CCC43O)C2)C1O (stereo not given),-2.5%,0.5%,.,.
COC(=O)C1=C(c2ccc(C(C)=O)cc2)C[C@@H]2CC[C@H]1N2C(=O)NCC1CC1,-1.2%,23.3%,.,.
Cc1ccc(O)c(C(=O)c2cc(C(=O)NCCC(C)C)c(=O)n(CCC(C)C)c2)c1,1.1%,15.0%,-5.1,-5.1%
O=c1c2ccccc2nc(-c2ccco2)n1-c1ccncc1,0.0%,13.8%,-8.5,2.1%
CCOc1ccc(-c2cc(C)[n+](CCN(CC)CC)c(-c3ccc(OCC)cc3)c2)cc1,0.4%,-12.9%,-1.2,?
COc1ccc(CN2C(=O)NC(=O)/C(=C/c3ccc([N+](=O)[O-])o3)C2=O)cc1,.,.,5.5,0.0%
COC(=O)C1=CO[C@@H](C)[C@@H]2CN3CC[C@]4(C(=O)Nc5ccccc54)[C@@H]3C[C@H]12,-4.8%,1.0%,-1.2,-0.5%
C=CCCC1(C(C)C)C(=O)NC(=S)NC1=O,-0.6%,-9.4%,.,.
C[C@]12CCC3C(CC[C@H]4C[C@H](N)CC[C@]34C)C1CC[C@H]2O (stereo not given in full),-2.6%,18.0%,.,1.5%
CC(C)(C)P(=O)(NCc1ccccc1)c1ccccc1 (stereo not given),2.5%,-2.3%,-7.2,-0.4%
Cc1ccc(C(=O)C2CN(C)CC2C(=O)c2ccc(C)cc2)cc1 (stereo not given),1.8%,1.0%,-16.6,-39.0%
OCC12CO[C@@H]3c4ccccc4[C@H](OC1)N32 (stereo not given in full),?,30.2%,5.6,-1.3%
CCCCn1c(O)c(C(C)=NCc2ccc(F)cc2)c(=O)[nH]c1=O,0.3%,14.2%,-1.6,-1.2%
C[N+]12CN3CN(CN(C3)C1)C2,6.7%,2.0%,0.4,-3.0%
O=C(CN1C(=O)CN=C(c2ccccc2Cl)c2cc(Cl)ccc21)NCc1ccco1,-0.7%,-7.6%,0.4,-2.0%
CC(C)[C@]12CC(=O)[C@H](C)[C@H]1C2,-1.6%,2.0%,.,.
CC1CCCC(C)N1/N=C/c1c[nH]c2ccc(Br)cc12 (stereo not given),9.0%,5.7%,4.6,20.5%
O=C1CC(=O)N(c2ccccc2)C(=O)N1c1ccccc1,4.7%,14.1%,.,-31.4%

# Profiles as entered above:
# Profile of Cc1ccc(O)c(C(=O)c2cc(C(=O)NCCC(C)C)c(=O)n(CCC(C)C)c2)c1 : Rango complex inh = 1.1%; Rango release inh = 15.0%; GLA inh pH 4.5 = -5.1; miR-21 FLuc = -5.1%
# Profile of CCOC(=O)c1ccc(N=C(C)c2c(O)[nH]c(=O)[nH]c2=O)cc1 : Rango complex inh = -2.7%; Rango release inh = -6.0%; GLA inh pH 4.5 = 0.9; miR-21 FLuc = -1.0%

# Other structures follow.
SMILES,Rango complex inh,Rango release inh,GLA inh pH 4.5,miR-21 FLuc
Cc1noc(C)c1CC(=O)N1CCCC(N2CCN(c3ccccc3F)CC2)C1 (stereo not given),2.4%,14.4%,.,.
COc1ccc2[nH]cc(CCN(C)C)c2c1,-1.5%,7.6%,-2.7&-4.9,0.6%
CCN1CCN(Cc2ccccc2C)CC1,4.4%,20.7%,-2.3,-1.2%
CCC(=NCc1cccnc1)c1c(O)n(-c2ccc(Cl)cc2)c(=O)[nH]c1=O,-1.4%,7.7%,-6.1,-2.0%
O=C1NC(=O)N(c2ccc3c(c2)OCO3)C(=O)/C1=C/c1ccc(N2CCCCC2)o1,?,-15.5%,-8.6,-16.0%

# The list is partial. The share of hits here may be higher or lower than overall.
